# Screening data (PubChem)
# KCNQ2 block = KCNQ2 potassium channel inhibitors, primary screen, cell-based, CHO-K1, FluxOR thallium flux, B-score (AID 2156) | 20 min; stronger effect = lower value; only compounds with negative scores are shown here; some inactives read as strong as hits | B-score at 10 µM | actives 1.1% (n = 310,000) | Potassium voltage-gated channel subfamily KQT member 2 (Rattus norvegicus), O88943;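 active = fluorescence ratio B-score at most minus 3 library SDs, with starting brightness B-score within 2 library SDs, cut at about -5.5 in these data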
# Target sequence (O88943 whole entry, looked up): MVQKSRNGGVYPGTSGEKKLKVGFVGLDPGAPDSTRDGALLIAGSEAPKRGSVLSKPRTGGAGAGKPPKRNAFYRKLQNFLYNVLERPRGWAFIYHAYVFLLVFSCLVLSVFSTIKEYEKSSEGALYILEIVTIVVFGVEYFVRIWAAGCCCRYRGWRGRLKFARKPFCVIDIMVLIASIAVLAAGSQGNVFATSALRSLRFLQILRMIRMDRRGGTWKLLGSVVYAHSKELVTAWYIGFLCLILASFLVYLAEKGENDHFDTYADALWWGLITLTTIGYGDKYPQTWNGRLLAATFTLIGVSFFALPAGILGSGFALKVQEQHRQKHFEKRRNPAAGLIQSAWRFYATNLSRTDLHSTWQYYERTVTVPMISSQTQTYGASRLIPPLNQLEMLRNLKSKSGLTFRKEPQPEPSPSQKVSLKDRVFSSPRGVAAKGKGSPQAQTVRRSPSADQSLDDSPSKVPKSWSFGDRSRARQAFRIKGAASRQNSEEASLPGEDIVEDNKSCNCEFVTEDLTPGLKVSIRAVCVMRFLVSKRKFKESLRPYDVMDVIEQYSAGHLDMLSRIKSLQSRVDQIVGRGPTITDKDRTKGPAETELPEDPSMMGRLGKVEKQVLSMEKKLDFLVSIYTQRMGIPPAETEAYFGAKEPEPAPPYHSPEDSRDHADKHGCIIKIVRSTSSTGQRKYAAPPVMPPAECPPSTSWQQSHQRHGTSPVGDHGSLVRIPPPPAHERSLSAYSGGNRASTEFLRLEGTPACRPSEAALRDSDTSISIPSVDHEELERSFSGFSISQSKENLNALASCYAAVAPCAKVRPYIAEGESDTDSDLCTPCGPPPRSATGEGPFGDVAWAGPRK
# KCNQ2 block baseline = further read-out of KCNQ2 block, marked with its call; B-score; measured here: initial fluorescence intensity artifact check;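 brightness before thallium and not channel activity; 0 = typical well and far values either way flag optical interference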
# * = called active by the depositor; i = inactive.
SMILES,KCNQ2 block,KCNQ2 block baseline
Cc1noc(C)c1S(=O)(=O)N1CCC(C(=O)NC2CCCc3ccccc32)CC1 (stereo not given),i,2.9
O=C(NC(=S)Nc1ccc(CN2CCOCC2)cc1)c1ccccc1[N+](=O)[O-],i,-0.68
Cc1cccc(C)c1NC(=O)CNC(=O)c1c(C)nn(-c2ccccc2)c1C,i,-0.12
CN(C)c1ccc(CNCc2cccnc2)cc1,i,-1.2
Fc1ccccc1OCCCn1ccnc1,i,0.51
COc1ccc(NC(=O)CSc2nc3[nH]c(=O)[nH]c(=O)c3s2)cc1OC,i,-1.6
O=C(CN1C(=O)c2cccc([N+](=O)[O-])c2C1=O)OCC(=O)N1CCCCC1,i,0.19
O=C(NCC(=O)N(c1ccccc1)C(C(=O)NC1CCCC1)c1ccncc1)c1cccs1 (stereo not given),i,-2
Cc1[nH]c2ccccc2c1CCN(Cc1cccnc1)C(=S)NC(C)(C)C,i,0.2
Cc1ccc(NC(=O)CCC(=O)NNC(=O)NC2CCCCC2)c(C)c1,i,0.04
CCC(c1ccccc1)c1nnc(NC(=O)c2ccco2)s1 (stereo not given),i,-0.2
COc1ccc(CCNC(=O)COC(=O)/C=C/c2cc(OC)c(OC)c(OC)c2)cc1OC,i,2.3
O=C(NCC1CCN(Cc2cccc(Cl)c2)CC1)C1CCCN(c2ncnc3c2nc2n3CCCCC2)C1 (stereo not given),i,0.04
COc1ccc(C)c(NC(=O)NCCc2cnc[nH]2)c1,i,-0.52
O=C(COC(=O)c1ccc([N+](=O)[O-])s1)Nc1cccc(S(=O)(=O)NC2=NCCCCC2)c1,i,-0.75
Cc1ccc(CSc2nnc([C@@H]3CCCN3C(=O)OC(C)(C)C)o2)cc1,i,-0.1
CCC(=O)Nn1cnc2c(c1=O)C1(CCCCC1)Cc1ccccc1-2,i,-0.81
COc1ccc(C(=O)C2CCCN(Cc3cccn3-c3cccnc3)C2)cc1OC (stereo not given),i,-0.49
COc1ccc(/C=N\NC(=O)C2=NNC(=O)C2C)cc1 (stereo not given),i,1
CCc1cc2ccc(C)cc2nc1SCC(=O)c1ccc(NC(C)=O)cc1,i,-0.37
CC(C)CC(=O)N1CCN(C(=O)c2ccco2)CC1,i,-0.35
CCC(C)(C)NC(=O)CN(C(=O)CCC(=O)Nc1nccs1)c1cccc(C)c1,i,-0.03
O=C(Nc1ccc(-c2nc3ccccc3o2)cc1)c1ccc(N2C(=O)C3C4C=CC(C4)C3C2=O)cc1 (stereo not given),i,2.1
O=c1c(-c2nc3ccccc3s2)cccn1Cc1ccccc1,i,2.5
O=C(Nc1cccc(Cl)c1)Nc1ccccc1NS(=O)(=O)c1cccs1,i,0.33
CCCN1C(=O)/C(=C\C=C2/C=CN(CC)c3ccccc32)SC1=S,i,1.1
CCN(C(=O)CSc1nnc(Nc2ccccc2C)s1)C1CCS(=O)(=O)C1 (stereo not given),i,-1.1
O=C(Nc1ccc2nc3n(c(=O)c2c1)CCCC3)c1cccc([N+](=O)[O-])c1,i,0.03
CCCC1(C(=O)OCC)NC(c2ccc(OC)cc2OC)C2C(=O)N(c3ccccc3)C(=O)C21 (stereo not given),i,-1.2
COc1ccc(N2C(=O)CSC2c2ccccc2)cc1 (stereo not given),i,-1.6
Cc1nc2ccc(C(=O)Nc3ccc4nc[nH]c4c3)cc2[nH]1,i,-0.11
CNC(=O)c1cnn(-c2nc(-c3ccc(OC)cc3)cs2)c1C(F)(F)F,i,-1.4
CC(=O)N(C(C)=O)c1nc(-c2ccccc2)cn1/N=C/c1cccc([N+](=O)[O-])c1,i,0.63
C/C(=N\O)c1ccc(N2C(=O)C3CC=C(Cl)CC3C2=O)cc1 (stereo not given),i,0.13
CCc1cc(C(=O)OC)c(NC(=O)CCCC(=O)O)s1,i,1.4
O=C1Nc2ccccc2C12OCCO2,i,2.5
COc1ccc(CNC(=O)C2CCCN(Cc3nc(-c4cccc(C)c4)oc3C)C2)cc1 (stereo not given),-6.4*,-1*
C/C(N)=C(/C#N)C(=O)CN1CCCCC1,i,-0.28
O=C1Nc2ccccc2C(O)(C(=O)NCc2ccc3c(c2)OCO3)N1c1ccc(Cl)c(Cl)c1 (stereo not given),i,-0.53
O=C(CCCOc1ccccc1)N1CCN(C(=O)c2ccco2)CC1,i,-0.7

# Single entries from the list:
# CCC(C)(C)NC(=O)CN(C(=O)CCC(=O)Nc1nccs1)c1cccc(C)c1 | KCNQ2 block baseline = -0.03
# C/C(N)=C(/C#N)C(=O)CN1CCCCC1 | KCNQ2 block baseline = -0.28
# Cc1nc2ccc(C(=O)Nc3ccc4nc[nH]c4c3)cc2[nH]1 | KCNQ2 block baseline = -0.11
# O=C1Nc2ccccc2C(O)(C(=O)NCc2ccc3c(c2)OCO3)N1c1ccc(Cl)c(Cl)c1 (stereo not given) | KCNQ2 block baseline = -0.53
# COc1ccc(CNC(=O)C2CCCN(Cc3nc(-c4cccc(C)c4)oc3C)C2)cc1 (stereo not given) | KCNQ2 block = -6.4*
# C/C(=N\O)c1ccc(N2C(=O)C3CC=C(Cl)CC3C2=O)cc1 (stereo not given) | KCNQ2 block baseline = 0.13
# O=C(Nc1ccc2nc3n(c(=O)c2c1)CCCC3)c1cccc([N+](=O)[O-])c1 | KCNQ2 block baseline = 0.03

# Additional compounds follow.
SMILES,KCNQ2 block,KCNQ2 block baseline
CCCC(=O)Nc1cccc(-c2nc3ccccc3o2)c1,i,2.9
Cc1nn(C)c(C)c1CN(Cc1nc(-c2ccc(F)cc2F)oc1C)C1CC1,i,-0.59
C/C(=N\OCC(=O)Nc1cc(C)cc(C)c1)c1ccc2c(c1)OCCO2,i,0.2
CC1C(=O)N2CCCc3cc(NC(=O)c4ccccc4C(F)(F)F)cc1c32 (stereo not given),i,0.11
N#CC1=C(N)Oc2n[nH]c(-c3ccccn3)c2C1c1c(F)cccc1Cl (stereo not given),i,-0.36
COC(=O)C1=C(C)NC(C)=C(C(=O)OC)C1c1ccc(-c2cc(Cl)ccc2Cl)o1,i,-0.31
CC(=O)C1=C(O)C(=O)N(c2cc(C(C)(C)C)on2)C1c1ccc(C(C)C)cc1 (stereo not given),i,0.46
CCOC(=O)CN1N=C(/C=C/c2ccc(OCC)cc2)CCC1=O,i,0.1
C=CCN(CC=C)CCCOc1ccc(Br)cc1Cl,i,0.75
COc1ccc(NS(=O)(=O)c2ccc(O)c(NC(=O)c3ccc(S(=O)(=O)N4CCCCCC4)cc3)c2)cc1,i,0.09
CCS(=O)(=O)N1CCN(S(=O)(=O)c2ccccc2[N+](=O)[O-])CC1,i,-0.69
Cn1cccc1Cc1nnc(SCC(=O)N2CCc3ccccc32)n1CCc1ccccc1,i,-0.92
CCn1c(SCC(=O)C(C)(C)C)nnc1-c1ccccn1,i,-0.91
CCOC(=O)c1nnn(-c2ccccc2)c1C,i,0.83
COc1ccc(CNC(=O)CCCn2nc(C)c([N+](=O)[O-])c2C)cc1OC,i,-0.51
Cc1ccc2[nH]c(CNC(=O)c3ccccc3F)cc2c1,i,-0.18
COc1ccc(-c2noc(-c3ccccc3C(=O)Nc3cccnc3)n2)cc1OC,i,1.7
Cc1ccc(C2(O)CN(c3ccccc3C)C3=[N+]2CCS3)cc1 (stereo not given),i,1.4
COc1cc(S(=O)(=O)N2CCCCC2)ccc1NC(=O)c1ccccc1Cl,i,1.7
Cc1ccc(S(=O)(=O)NC(CC(=O)NCC2CCCO2)c2ccccc2)cc1 (stereo not given),i,2.1

# Part of the list above, set out differently:
# Below each SMILES: KCNQ2 block | KCNQ2 block baseline
CCn1c(SCC(=O)C(C)(C)C)nnc1-c1ccccn1
 : i | -0.91
CCOC(=O)c1nnn(-c2ccccc2)c1C
 : i | 0.83
Cc1ccc2[nH]c(CNC(=O)c3ccccc3F)cc2c1
 : i | -0.18

# 3 compounds drawn at random from those above, as already listed:
SMILES,KCNQ2 block,KCNQ2 block baseline
CCn1c(SCC(=O)C(C)(C)C)nnc1-c1ccccn1,i,-0.91
Cn1cccc1Cc1nnc(SCC(=O)N2CCc3ccccc32)n1CCc1ccccc1,i,-0.92
Cc1nn(C)c(C)c1CN(Cc1nc(-c2ccc(F)cc2F)oc1C)C1CC1,i,-0.59

# (more compounds)
SMILES,KCNQ2 block,KCNQ2 block baseline
COc1ccc(S(=O)(=O)NCc2ccc(C(=O)NCCCN3CC(C)CC(C)C3)cc2)cc1 (stereo not given),i,-0.66
CCN1C(=O)/C(=C\C(=O)c2cccs2)c2cc(Br)ccc21,i,-2.2
Cc1ccc(S(=O)(=O)Nc2ccc3[nH]ccc3c2)cc1,i,-0.2
COC(=O)Nc1nnc(Cc2ccc(Cl)cc2)s1,i,-0.03
CN(C)C(=O)CCCCCCCCC(=O)N(C)C,i,1.9
CCOC(=O)COc1ccc2c(c1)c(C(=O)OCC)c(C)n2CC,i,-0.92
CC(C)(C)OC(=O)N1CCC2(CC1)C(C#N)=C(N)OC1=C2C(=O)CCC1,i,0.5
COc1ccc(NC(=O)c2scc(S(=O)(=O)C(C)C)c2N)cc1,i,-1.1
O=C(CN1C(=O)c2ccccc2C1=O)OCC(=O)c1ccccc1,i,0.85
CC(=C/c1ccccc1)/C=C1/SC(N2CCOCC2)=NC1=O,i,0.01
COc1ccccc1OCC(=O)Nc1ccccc1C(=O)NCc1ccco1,i,-1.9
CCOC(=O)C1CCN(CCCSc2ccc(C)cc2)CC1,i,0.72
COc1ccccc1C(=O)COC(=O)c1nc(Cl)ccc1Cl,i,1.2
Cc1ccc(C2C3=C(CCCC3=O)Nc3[nH]c(=S)[nH]c(=O)c32)cc1 (stereo not given),i,-0.35
Cc1cc(C)cc(C(=O)NCC(=O)OCc2c(C)noc2C)c1,i,0.36
COC(=O)/C(C#N)=C/c1c(Oc2cc(C)cc(C)c2)nc2c(C)cccn2c1=O,i,3.2
COc1ccc(CCNS(=O)(=O)CCNC(=O)c2ccc3c(c2)OCO3)cc1OC,i,1.8
O=C1OC(/C(=C\Nc2cc(Cl)ccc2O)[N+](=O)[O-])c2ccccc21 (stereo not given),i,0.32
CCCCCOc1ccc(CSC(=N)N)cc1[N+](=O)[O-],i,-0.32
Cc1no[n+]([O-])c1COc1ccccc1/C=N/n1nnnc1N,i,-1.2
COc1cc(C(C[N+](=O)[O-])c2c(C)cc3ccccn23)ccc1O (stereo not given),i,0.18
COc1ccc(N2CCN(C(=O)COC(=O)CCOc3ccc(C)cc3)CC2)cc1,i,-1.6
CCCCOc1ccccc1NC(=O)C=C(C)C,i,0.38
COC(=O)c1ccc(CNC(=O)CCc2c[nH]c3ccccc23)cc1,i,0.48
O=C(CCC(=O)c1ccc[nH]1)c1ccc(Cl)cc1,i,-0.12
Cc1cc(C(=O)Nc2ccc(C)c(C)c2)n(-c2ccccc2)n1,i,1.8
COc1cc(NC(=S)NCCSc2ccc(C)cc2)cc(OC)c1,i,-0.3
O=c1[nH]nc(N2CCOCC2)c(=O)[nH]1,i,-1.1
CCOc1ccc(C(C)(C)C)cc1S(=O)(=O)n1nc(C)cc1C,i,-0.02
CS(=O)(=O)N1CCN(CC(=O)NC2CCCC2)CC1,i,0.02
COC(=O)NC(Nc1sc2c(c1C(N)=O)CCCC2)(C(=O)OC)C(F)(F)F (stereo not given),i,-1
CCOC(=O)c1nc(Nc2cc(C)cc(C)c2)c2ccccc2n1,i,-0.81
COC(=O)C(Cc1ccc(OC(=O)c2ccc(C)cc2)cc1)N1Cc2ccccc2C1=O (stereo not given),i,1.6
Cc1cc(C)c(C(=O)N2CCCC(Nc3ccc(C)c(C)c3)C2)o1 (stereo not given),i,-0.53
COc1cc(/C=N/n2c(-c3ccccc3)n[nH]c2=S)ccc1O,i,0.13
CCc1c(C)c2cc(Cl)c(O)c(CN3CCCCC3)c2oc1=O,i,0.01
O=c1c(C=NCc2ccccc2)c(NCc2ccccc2)nc2ccccn12,i,-0.23
O=C1CN(C(=O)c2ccccc2F)C(c2ccc(F)cc2)c2cc(Br)ccc2N1 (stereo not given),i,-0.1
O=C(Cc1ccccc1Cl)Nc1cccnc1,i,2
Clc1ccc(OCCn2ccnc2)c(Cl)c1,i,0.57
O=C(COC(=O)c1ccccc1)NC1CCCC1,i,-0.54
Cc1cc2cc(CNC(=O)c3ccc4c(c3)OCO4)ccc2[nH]1,i,0.68
O=C(CC1CCS(=O)(=O)C1)NC1CCCCC1 (stereo not given),i,1.3
CCOc1ccc(NS(=O)(=O)c2cc(C(=O)N3CCCC3)ccc2Cl)cc1,i,-0.32
COc1ccc(NS(=O)(=O)c2ccc(NC(=O)CCNS(=O)(=O)c3ccc(C)cc3)cc2)cc1,i,0.82
CCOc1ccc(Br)cc1S(=O)(=O)NCCN1CCCC1,i,0.43
O=C1CSC(=S)N1/N=C/c1ccc(Cl)c([N+](=O)[O-])c1,i,-0.73
CCOC(=O)c1ccc(-n2c(CC)nc3ccccc3c2=O)cc1,i,-0.33
Cc1oc2ccc(NS(=O)(=O)c3ccccc3)cc2c1C(=O)Nc1ccccc1,i,-1
O=C(NC1CCC(O)CC1)c1cccc2cccnc12 (stereo not given),i,-2.1
CC(NC(=O)c1ccc(C(F)(F)F)cc1)C(c1ccccc1)N1CCOCC1 (stereo not given),i,-0.09
O=S1(=O)CC/C(=N/Nc2ccccn2)c2cc(F)ccc21,i,-0.25
O=S(=O)(c1cccc2cccnc12)N(CCO)CCO,i,2.9
CC(C)(C)NCC(O)COc1cccc2[nH]c(=O)[nH]c12 (stereo not given),i,0.01
CCCCc1n[nH]c2c1/C(=N/OCC)CC(C)(C)C2,i,0.63
COc1ccc(C2/C(=C(/O)c3ccc(S(=O)(=O)N4CCOCC4)cc3)C(=O)C(=O)N2CCN2CCOCC2)cc1 (stereo not given),i,-0.54
O=C(NC1CCOC1)c1ccc(OC2CCN(CCc3ccccc3)CC2)cc1 (stereo not given),i,0.04
C=C(C)Cn1cnc2cc(C)c(C)cc21,i,-0.01
Oc1cccc(/C=N/c2c(-c3ccco3)nc3ccccn23)c1,i,-2.6

# A portion of the library; the hit share may differ from the screen's.
